PINK1 expr mod: A Quantitative High throughput Screen to Identify Chemical Modulators of PINK1 Expression; Potency, µM (series often up to 76.6 µM), for inactives: at the highest dose activation (PINK1 increase), hits mostly activators; PINK1 immunofluorescence, high-content cytometry, 24 h; 410,000 tested, 0.2% active; active = well fitted activation curve with a large enough effect; inconclusive = small, poorly fitted or top-dose-only effect; inactive = flat fitted curve, though single readings scatter; cell line not stated here;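 further: potency means the concentration at half of the fitted maximal effect; % of control where 0% means no effect; nearly all actives have a fitted effect of over 65% in size; a mitochondrial uncoupler was the plate control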
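Measures PINK1 amount and localization on or inside mitochondria by immunofluorescence. Stable cells get compounds at 5 concentrations for 24 hours before fixation and staining; CCCP controls included.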
TRPML1 agonist: qHTS for Agonists of the Human Mucolipin Transient Receptor Potential 1 (TRPML1). activation, % (concentration not given with the values). 410,000 tested, 0.12% active. TRPML1-expressing cells, Ca2+ dye fluorescence, FDSS; host cell line not named in the record; reference of the full effect not given here. Mucolipin-1 (Homo sapiens), Q9GZU1; in the data active = activation above about 50%; inconclusive = about 30% to 50%; inactive = below about 30%; further: 0% is about no effect; the text of the record puts the active cut at 80%
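TRPML1-DL cells, Tet-induced overnight (~16 h, 37 degrees C), loaded 45-90 min at room temperature with Ca8 no-wash calcium dye plus quencher. FDSS fluorescence: 10 s baseline, compound pin-transfer, 110 s agonist read, then EC80 54-4 (4uM final) and 110 s antagonist read.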
Six1-Eya2 blk: qHTS Assay for Inhibitors of the Six1/Eya2 Interaction. Homeobox protein SIX1 (Homo sapiens) + Protein phosphatase EYA2 (Homo sapiens), …. AlphaScreen GST-Six1/His-Eya2 binding, biochemical; hits give low values; control for the full effect not named in the record. activity change, % (no concentration beside the values). 360,000 tested, 0.56% active; in the data active = activity change below about -65%; inconclusive = about -30% to -65%; inactive = above about -30%; further: on the % scale 0 is the no-effect control and ±100 the full control effect; compound concentration not given in the record
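AlphaScreen with GST-Six1 and His-Eya2 (5X mix: 250 nM and 500 nM), glutathione donor and nickel acceptor beads; buffer 50 mM Tris pH 8.0, 300 mM NaCl, 1 mM TCEP; 1 h at 37 C in the dark.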
D2 ag: Beta-Arrestin HTS for Positive Allosteric Modulators of the Human D2 Dopamine Receptor: Agonists | 360,000 tested, 0.084% active | activation, % (no concentration beside the values) | AID 624465, 2012 | DiscoveRx PathHunter D2 beta-arrestin, luminescence, 90 min; 100% = 57 uM dopamine signal; in the data active = activation above about 40%; inconclusive = about 15% to 40%; inactive = below about 15%; further: compound concentration not given in the record; the text of the record calls up to 30% inactive
Target sequence (P14416 whole entry, looked up): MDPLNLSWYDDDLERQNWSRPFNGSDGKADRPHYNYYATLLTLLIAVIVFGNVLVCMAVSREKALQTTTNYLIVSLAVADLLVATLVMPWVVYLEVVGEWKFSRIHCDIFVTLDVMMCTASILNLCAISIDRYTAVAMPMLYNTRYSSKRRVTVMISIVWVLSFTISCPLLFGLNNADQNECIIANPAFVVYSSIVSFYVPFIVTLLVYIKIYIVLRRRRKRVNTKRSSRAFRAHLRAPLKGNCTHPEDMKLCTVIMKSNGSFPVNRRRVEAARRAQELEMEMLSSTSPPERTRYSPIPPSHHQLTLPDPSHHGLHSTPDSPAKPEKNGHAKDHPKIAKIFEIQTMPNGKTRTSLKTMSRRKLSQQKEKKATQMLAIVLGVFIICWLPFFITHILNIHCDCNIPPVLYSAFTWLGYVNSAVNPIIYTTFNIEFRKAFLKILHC
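Agonist mode: compounds alone added to overnight-plated D2 PathHunter cells for 90 min at 37 C, with 57 uM final dopamine (EC100) defining full response. Beta-arrestin recruitment detected by chemiluminescent reagent, read after 1 h at ambient temperature.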
CtBP-E1A blk: qHTS Assay for Inhibitors of the CtBP/E1A Interaction | CtBP / adenovirus E1A interaction (AlphaScreen) | AlphaScreen GST-E1A/His-CtBP binding, 1536-well; hits give low values; control for the full effect not named in the record | activity change, % (test concentration not listed) | 340,000 tested, 0.49% active | AID 651724, 2012; in the data active means activity change below about -65%; inconclusive means about -30% to -65%; inactive means above about -30%; further: on the % scale 0 is the no-effect control and ±100 the full control effect; compound concentration not given in the record
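GST-E1A and His-tagged CtBP (125 nM each as 5X stock) were preincubated with pin-transferred compound for 2 h at 37 °C in the dark, then glutathione donor and nickel acceptor beads were added for 1 h before AlphaScreen reading.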
D2 PAM: Beta-Arrestin HTS for Positive Allosteric Modulators of the Human D2 Dopamine Receptor: Potentiators. D(2) dopamine receptor (Homo sapiens), P14416. DiscoveRx D2 beta-arrestin cells, luminescence, 90 min; 100% = 57 uM dopamine signal. potentiation, % (concentration not given with the values). 360,000 tested, 0.23% active; active = potentiation of 50% or more; inconclusive = 30% to 50%; inactive = 30% or less;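 further: compound concentration not given in the record; tested on top of an EC20 dose of dopamine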
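D2 cells co-treated with compound plus 50 nM dopamine (EC20) for 90 min at 37 deg C to detect potentiation. Beta-arrestin recruitment was read as enzyme-fragment luminescence after 1 h at ambient temperature. Full response was set by 57 uM dopamine.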
* hit, by the source's call; ? = inconclusive; . = not tested or not shown; & = joins results of further samples; [ ] = dose if it differs, or a comment.

SMILES	PINK1 expr mod	TRPML1 agonist	Six1-Eya2 blk	D2 ag	CtBP-E1A blk	D2 PAM
c1ccc(CSc2nnc(NC3CCCCC3)s2)cc1	1.4%	0.5	2	-6.0	0	-15
CC(=O)c1ccc(NC(=O)CN2CCN(S(=O)(=O)c3ccc4c(c3)OCCO4)CC2)cc1	3.0%	-0.5	1	-4.0	1	-14
Cc1nnc(SCc2cccc([N+](=O)[O-])c2)s1	3.1%	0.0	5	3.4	5	0
Cc1cc(C)c(C)c(OCCn2ccnc2)c1	-1.4%	0.2	-1	3.0	-4	-9
CCC(C)[C@H](NC(=O)N1CC(=O)Nc2ccccc21)C(=O)N1CCC(C(=O)O)CC1 (stereo partly specified)	-0.8%	0.5	-1	-2.1	.	-8
O=C(CCN1C(=O)[C@@H]2Cc3ccccc3CN2C1=O)NCc1ccccc1Cl	-0.1%	0.0	-3	-2.1	6	-20
Cc1cccc(NC(=O)CCCC(=O)OC(C)C(=O)c2ccccc2)c1 (stereo unspecified)	-0.4%	-0.4	0	0.1	6	1
Cn1c(=O)n(Cc2ccccc2Br)c2ccccc21	1.7%	2.0	-8	-7.7	-9	6
O=C(Nc1ccccc1)C1=C[C@@H](C2CC2)C[C@@H](OCCCCO)O1	2.8%	-1.1	8	-0.3	2	-13
CSc1cccc(NC(=O)N2CCCC(CNS(=O)(=O)Cc3ccccc3)C2)c1 (stereo unspecified)	-1.2%	0.2	5	-14	19	3
CC1CN(S(=O)(=O)c2cccc(C(=O)OC(C)C(=O)NC3CCCCC3C)c2)CC(C)O1 (stereo unspecified)	2.2%	0.3	3	-6.4	2	-4
Cc1cccc(OCCCSc2nc3ccc(C)cc3[nH]2)c1	?	-1.0	1	-3.1	10	-1
O=C(CNS(=O)(=O)c1cccs1)NCc1ccccc1	2.2%	0.4	7	-2.1	1	-4
O=c1c(-c2ccccc2)cocc1-c1ccccc1	6.4%	-0.5	2	-1.3	1	-5
CC1=NN(c2ccc(C)cc2C)C(=O)C1C(c1ccccc1O)C1C(=O)N(c2ccc(C)cc2C)N=C1C (stereo unspecified)	-0.5%	0.7	5	-2.2	5	-1
Cc1ccc(NCc2nnc(SCC(=O)Nc3nnc(C)s3)n2C)cc1	0.0%	0.1	8	-3.8	-1	-4
CC(=O)NC(C)(c1ccccc1)c1nc(-c2ccc(S(C)(=O)=O)cc2)cs1 (stereo unspecified)	1.1%	-0.3	-2	13	9	-5
COC(=O)c1cccc(NC(=O)c2ccc(S(=O)(=O)N(C)c3ccccc3OC)cc2)c1	-1.5%	-0.6	-2	2.1	5	-24
CCn1c(N)c(C(=O)NC2CCCCC2)sc1=S	-1.6%[38.3 µM]	-0.2	-12	-0.7	-8	-6
O=C(Nc1ccc(CN2CCOCC2)cc1)c1cc(Cl)ccc1Cl	-0.6%	-0.3	-2	-1.6	8	0
O=C(/C=C/c1ccco1)OCc1nnc(-c2ccc(Cl)cc2)o1	0.8%	-1.4	-1	-4.0	-2	-6
Cc1ccc(C2=NN(C(=S)Nc3ccccc3)C(c3ccco3)C2)cc1 (stereo unspecified)	-0.9%	0.4	-27	-1.6	-14	7
CCOCCCn1cnc2c(c1=O)c1nc3ccccc3nc1n2-c1ccccc1	15%[38.3 µM]	0.4	2	-2.7	6	2
Cn1ncc2c(N3CCN(c4ccc(Cl)c(Cl)c4)CC3)ncnc21	5.0%	0.4	5	1.3	-5	5
Cc1cccc(NC(=O)COc2ccc(Br)cc2/C=N/O)c1	1.4%	0.5	1	-0.6	3	-15
CCC(C)c1ccc(O)c(NC(=O)c2cncc(Br)c2)c1 (stereo unspecified)	2.9%[38.3 µM]	0.1	-20	0.7	13	?
O=C(O)c1cc(-c2ccccc2)n(-c2ccccc2C(=O)O)n1	0.3%	0.7	7	-1.1	5	-4
Cc1c(C(=O)NCCC2=CCCCC2)oc2ccc(S(=O)(=O)N3CCC4(CC3)OCCO4)cc12	2.6%	0.2	12	?	-22	?
COc1ccc(/C=N/Nc2nnc(Cc3ccc(OC)c(OC)c3)c(=O)[nH]2)cc1	11%	1.7	1	0.5	7	19
COC(=O)[C@H](Cc1ccccc1)NC(=O)NCCc1ccc(F)cc1	0.5%	0.1	9	-2.2	8	-6
Cc1nn(Cc2c(F)c(F)c(F)c(F)c2F)c(C)c1NC(=O)c1nn(C)cc1[N+](=O)[O-]	-3.6%[38.3 µM]	-0.7	1	-0.8	15	-3
O=C(CCN1C(=O)C2C3C=CC(C3)C2C1=O)Nc1ccccc1 (stereo unspecified)	-1.9%	3.0	6	-0.2	-4	-1
CCCCC1Cc2[nH]c(=S)[nH]c(=O)c2C(c2ccc(Cl)cc2)O1 (stereo unspecified)	0.6%	-0.5	0	-3.6	1	-12
COc1ccccc1CN1C(=O)c2ccncc2C1=O	?	0.9	0	1.8	4	-1
Cc1ccc(/C=C/c2nnc(-c3ccc(C)cc3)o2)cc1	.	-0.2	-2	-2.5	8	-14
COC(=O)C1=C(C)NC(=S)NC1c1ccc(OC(=O)c2ccco2)cc1 (stereo unspecified)	-0.2%	-1.0	0	-2.1	-9	-1
COc1ccccc1C=C1CCc2ccccc2C1=O	0.3%	-0.6	-3	6.3	1	5
COc1ccc(NC(=S)Nc2ccc(OC)cc2OC)c(OC)c1	0.3%	0.1	-5	0.7	-3	-8
CCCCCSc1nnc2c(n1)OC(C)N(C(C)=O)c1ccccc1-2 (stereo unspecified)	-1.1%	1.5	-8	-8.0	-13	-5
Cc1cc(NC(=O)C2CC(=O)N(c3ccccc3)C2)no1 (stereo unspecified)	0.1%	-0.6	-8	2.4	-1	-3
Cc1ccc(S(=O)(=O)N(CC(=O)NCc2ccco2)c2ccccc2C)cc1	-0.8%	1.7	-6	0.4	-2	-4
O=c1[nH]c(COc2ccc(Br)cc2Cl)nc2ccccc12	-1.0%	1.0	-3	-3.9	-4	-2
CC(=O)c1cnc(Nc2cccc(Cl)c2Cl)s1	1.5%	0.9	2	0.6	0	-6
CCn1c(SCC(=O)NCc2ccccc2)nnc1-c1c[nH]c2ccccc12	-0.6%[38.3 µM]	3.4	1	-2.9	-4	-6
CC(C)NC(=O)C1CCN(Cc2cccc(Oc3ccccc3)c2)CC1	1.6%	0.5	0	-0.6	1	-5
O=C(Nc1cccc(C(F)(F)F)c1)c1cc(Br)cc2c1OCC2	5.3%	0.5	8	-1.9	9	-1
Cc1cc(C(=O)Nc2sc3c(c2C#N)CCCC3)no1	?	1.8	3	4.3	0	3
CC(=O)NS(=O)(=O)c1ccc(NC(=S)NC(=O)c2ccco2)cc1	-0.9%	0.8	2	-8.0	6	-26
Cc1ccc(C)c(NC(=O)CSc2nnc(CNC(=O)c3cccs3)o2)c1	-1.9%	3.4	1	-0.3	2	-5
Nc1cccc(-c2cn3cc(C(F)(F)F)cc(Cl)c3n2)c1	9.3%[38.3 µM]	0.2	-2	-0.3	-1	6
CC(=O)c1ccc(NC(=O)C2=CC(c3cccs3)=NS(=O)(=O)N2C)cc1	3.2%&-1.0%	0.5&-0.1	-8	0.9	-3	-4
CC1CCCC(NC(=O)COC(=O)CCc2ccccc2)C1C (stereo unspecified)	-0.3%	4.4	8	-3.5	6	-3
COc1ccccc1N(C(C)=O)C1=C(Cl)C(=O)c2ccccc2C1=O	0.0%	12	-22	14	-17	-30
O=C(CNC(=O)N1CC(=O)Nc2ccccc21)Nc1cc(Cl)ccc1Cl	-0.5%	0.2	-1	1.5	.	-15
Cn1c(=O)[nH]c(=O)c2c1nc(CN1CCOCC1)n2CCCc1ccccc1	-1.1%	0.0	-1	-2.6	0	-4
Cc1cc(NC(=O)c2cccs2)ncc1NC(=O)c1cccc(F)c1	-0.9%	2.1	-8	-2.7	3	-2
CS(=O)(=O)Nc1cccc(C2=NN(S(=O)(=O)c3ccccc3)C(c3cccs3)C2)c1 (stereo unspecified)	-1.7%[38.3 µM]	1.6	-4	-4.3	-4	3
COc1ccccc1CC(O)CC1c2c(cc3c(c2OC)OCO3)CCN1C (stereo unspecified)	7.5%	-0.1	-7	-7.9	-8	-25
O=C1CCCCN1CCC(=O)N1CCCC(Nc2ccc(F)c(F)c2)C1 (stereo unspecified)	-1.3%	-0.9	0	-5.0	2	-15
CC1=NN(c2ccc(C)c(C)c2)C(=O)/C1=C\C=C\c1ccc([N+](=O)[O-])o1	1.2%	0.0	-26	7.1	-12	-5
The list continues.
SMILES	PINK1 expr mod	TRPML1 agonist	Six1-Eya2 blk	D2 ag	CtBP-E1A blk	D2 PAM
CCN1C(=O)/C(=C\c2ccco2)C(C(=O)OC)=C1C	-0.4%	0.2	-7	-7.3	1	-11
Cc1onc(-c2ccccc2)c1CNS(=O)(=O)c1ccccc1	0.4%	0.7	11	-2.1	-2	-9
O=C(Nc1cccc2ccccc12)OCc1cncs1	3.0%	-0.3	4	1.9	6	2
NC(CO)C(O)c1ccc([N+](=O)[O-])cc1 (stereo unspecified)	-0.2%	.	2	-6.6	10	-12
Cc1ccc(C(=O)CN2C(=O)NC3(CCCCCC3)C2=O)c(C)c1	1.6%	-0.5	-3	-3.0	-2	7
CCn1c(-c2cccnc2Cl)nc2cc(Cl)c(Cl)cc21	5.9%[38.3 µM]	0.6	13	3.1	45	-4
COc1cccc(Oc2coc3cc(OC(=O)N4CCOCC4)ccc3c2=O)c1	0.0%	0.0	17	-4.5	-4	2

Screening data (PubChem)
